A1 inh = inhibitors of the anti-apoptotic protein A1, read as caspase activation; MEF A1-2A-BIM cells, Caspase-Glo 3/7 luminescence, 3 h; percent of clofoctol response, vehicle zero; caspase activation, % (concentration not given with the values); actives 0.066% (n = 330,000); AID 2462;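 active = over half of replicate activation scores above 10%, or exactly half above 10 with the replicate mean above 10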;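 note: wells of about 30 µL received 50 nL stock; many hits fall short of the cut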
MLL AF4-AF9 inh = inhibitors of human MLL-AF4/AF9 interaction; P42568; AlphaScreen, biotin-AF4 peptide binding to FLAG-AF9; inhibition, % at 10 µM; actives 0.47% (n = 350,000); AID 651704;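 active = every replicate reaching a set inhibition limit, whatever the replicate mean, cut at about 25% in these data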;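 note: 0% = plate neutral control median and 100% = total signal loss; the record names both 10 and 1 µM as test concentration; the first replicate is given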
Target sequence (P42568 whole entry, looked up): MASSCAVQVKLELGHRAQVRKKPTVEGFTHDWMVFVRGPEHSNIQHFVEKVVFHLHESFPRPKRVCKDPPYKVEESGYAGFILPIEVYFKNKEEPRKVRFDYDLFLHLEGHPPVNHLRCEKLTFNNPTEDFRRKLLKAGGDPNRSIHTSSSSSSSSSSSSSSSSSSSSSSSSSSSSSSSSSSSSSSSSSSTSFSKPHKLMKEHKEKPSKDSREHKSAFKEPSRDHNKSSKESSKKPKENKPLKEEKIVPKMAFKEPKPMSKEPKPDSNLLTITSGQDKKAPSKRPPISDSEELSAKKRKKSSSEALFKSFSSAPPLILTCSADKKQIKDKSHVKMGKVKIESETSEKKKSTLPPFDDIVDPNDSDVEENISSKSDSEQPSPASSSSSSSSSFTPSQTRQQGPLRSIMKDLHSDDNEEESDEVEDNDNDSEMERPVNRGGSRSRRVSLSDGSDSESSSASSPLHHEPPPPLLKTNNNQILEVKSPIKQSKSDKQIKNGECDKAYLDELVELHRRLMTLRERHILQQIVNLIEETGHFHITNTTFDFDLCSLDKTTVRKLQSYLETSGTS
T cruzi inh = blocks replication of Trypanosoma cruzi; inhibition, % (no concentration beside the values); actives 1.4% (n = 300,000); T. cruzi beta-gal in NIH3T3, luminescence, 90 h;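 active = mean inhibition across valid replicates above about 55%, limit read from the data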;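 note: signal also drops with host cell toxicity which is not excluded here; 0% = plate median of DMSO wells and 100% = zero luminescence signal; higher percent means less beta-gal luminescence so fewer parasites; stock transfer was 50 nL into about 50 µL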
UCH37 DUB inh = human UCH37 deubiquitinating enzyme inhibition; inhibition, % (test concentration not listed); Q9Y5K5; purified proteasome/UCH37, Ub-AMC cleavage fluorescence; actives 0.33% (n = 330,000);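 active = mean of two replicates above 20%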;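 note: 0% = compound-free wells with enzyme and 100% = wells lacking proteasome; stock transfer was 100 nL into about 20 µL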
Target sequence (Q9Y5K5 whole entry, looked up): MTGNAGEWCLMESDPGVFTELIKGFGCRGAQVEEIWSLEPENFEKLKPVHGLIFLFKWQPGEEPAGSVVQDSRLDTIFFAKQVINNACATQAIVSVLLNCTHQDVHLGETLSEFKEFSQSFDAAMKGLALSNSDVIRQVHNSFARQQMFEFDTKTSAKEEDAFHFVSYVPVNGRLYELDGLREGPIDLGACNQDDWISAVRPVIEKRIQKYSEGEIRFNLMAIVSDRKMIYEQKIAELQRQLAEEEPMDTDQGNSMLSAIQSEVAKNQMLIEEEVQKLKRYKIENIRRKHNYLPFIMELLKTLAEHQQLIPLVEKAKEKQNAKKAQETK
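system = Proteasome-associated human UCH37 deubiquitinase | amount = 0.15 nM proteasome as dispensed | medium = pH 7.4 Tris-HCl (50 mM) with ovalbumin, ATP-MgCl2, DTT | incubation = 30 min preincubation with enzyme, 25 min cleavage at room temperature | detection = AMC fluorescence 355/460 nm | read-out basis = percent inhibition | controls = no-proteasome and no-compound wells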
Ecoli growth = blocks Escherichia coli growth; actives 0.21% (n = 330,000); OD600, 23 h; hits give low values; OD600 absorbance (concentration not given with the values);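 active = OD600 absorbance below the run mean of sample wells minus 3.6 SD, in any replicate, cut at about 0.56 in these data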;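 note: stock transfer was 300 nL into about 60 µL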
FGF22 binding = FGF22 (human) thermal shift binding | Q9HCT0 | calls only at 9.99 µM | actives 1.5% (n = 340,000) | recombinant FGF22 thermal shift, SYPRO orange fluorescence; percent of sucrose octasulfate shift, DMSO zero;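 active = melting point raised past a set limit in the mean and every replicate; three in four hits are not shown here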
Target sequence (Q9HCT0 whole entry, looked up): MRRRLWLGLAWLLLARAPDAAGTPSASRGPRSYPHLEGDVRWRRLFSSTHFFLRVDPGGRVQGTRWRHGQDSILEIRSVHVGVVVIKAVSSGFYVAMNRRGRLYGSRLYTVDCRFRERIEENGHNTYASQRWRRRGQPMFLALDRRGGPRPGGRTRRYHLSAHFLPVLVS
Ecoli rRNA inh = inhibitors of bacterial rRNA selective over humanized ribosomes. E. coli WT GFP vs humanized-ribosome RFP mutants, fluorescence, 24 h; hits give low values; DMSO median 0, no signal -100. actives 1.6% (n = 350,000). GFP signal change (wild-type ribosome), % (concentration not given with the values);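 active = significant combined selectivity score with lowered wild-type GFP, culture density cut under 30%, mutant RFP and density less affected; inactive = any of these conditions unmet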; note: one replicate is shown; some compounds called inactive have numbers as strong as hits
Beta apoptosis = beta cell apoptosis inhibition | INS-1E cytokine-induced death, ATP luminescence, 48 h; percent of positive-control rescue, neutral wells zero | protection from apoptosis, % (no concentration beside the values) | actives 0.8% (n = 300,000);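 active = all replicates at 75% or more, or half of them and the mean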;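 note: 0% = cytokine-treated negative control wells and 100% = positive control rescue; higher means more ATP so stronger rescue from cytokine killing; wells of about 40 µL received 100 nL stock; the first replicate is given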
Ecoli rRNA inh OD600 = recorded beside Ecoli rRNA inh, whose call it bears; OD600 change, %; measured here: OD600 growth;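 optical density of the mix in the first replicate; 0 = DMSO median and -100 = no signal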
Ecoli rRNA inh RFP = recorded beside Ecoli rRNA inh, whose call it bears; RFP signal change, %; measured here: RFP humanized mutant strains;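 first replicate; 0 = DMSO median and -100 = no signal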
Active calls of the source: *; i = inactive; · = not tested or not shown. Only part of the results is shown; count on the stated rates, not on these rows.

Results follow in this order: A1 inh, MLL AF4-AF9 inh, T cruzi inh, UCH37 DUB inh, Ecoli growth, FGF22 binding, Ecoli rRNA inh, Ecoli rRNA inh OD600, Ecoli rRNA inh RFP, Beta apoptosis
> c1ccc(C2NCCNC2c2ccccc2)cc1 (stereo not given)
 : ·, -1.5, ·, -1.0, 0.66, i, ·, ·, ·, ·
> CSc1nsc(SCC(=O)Nc2ccc(Cl)c(C(=O)O)c2)n1
 : 0.5, -2.2, -7, -0.1, 0.68, i, 2, 16, -0.5, ·
> C=CCn1c(COc2ccc(OC)cc2)nnc1SCn1nnc2ccccc2c1=O
 : 2.6, 3.3, -12, 5.3, 0.69, i, -15, -22, -3.6, -11
> Cc1ccc(Cn2ncc3c(N4CCN(Cc5ccc(Cl)cc5)CC4)ncnc32)cc1
 : 1.7, ·, 32, 5.1, 0.7, ·, ·, ·, ·, ·
> CCCCOc1ccc(/C=C/C(=O)NC2=Nc3ccccc3NC(C)=C2C(=O)OCC)cc1OC
 : -0.3, 0.4, 32, 3.7, ·, ·, -7, 1, 0.5, -1
> Cc1cc(C(=O)Nc2ccc(Cl)cc2)c(C)n1-c1ccccc1
 : -7.6, -1.7, 12, 0.6, 0.66, ·, -40*, -27*, -7.7*, ·
> Nc1nc(N)c(N=Nc2ccc(Cl)cc2)c(=O)[nH]1
 : -0.5, -0.4, -8, 3.2, 0.7, i, -4, 12, 3.8, -2
> Cc1cc(OCC(=O)OCC(=O)N(C)C2CCS(=O)(=O)C2)ccc1Cl (stereo not given)
 : ·, -2.1, ·, -1.2, 0.64, i, 3, 1, -1.2, ·
> O=C(Nc1ccc(Br)cc1F)c1sccc1-n1cccc1
 : 0.5, ·, 14, 0.4, 0.67, ·, ·, ·, ·, ·
> COc1ccc(C2CC(c3cccc(Cl)c3)=NN2c2ccc(S(N)(=O)=O)cc2)cc1 (stereo not given)
 : ·, -30, ·, i, 0.7, ·, 5, 4, -3.2, ·
> CNC(=S)NC12CC3CC(CC(C3)C1)C2
 : 0.5, -0.3, -12, -1.4, 0.63, i, 11, 3, -4.4, -6
> O=C(c1ccccc1)N(Cc1nc2ccccc2c(=O)[nH]1)C1CCCC1
 : -1.3, -0.6, 2, 1.7, 0.69, i, -6, -8, 1.8, 0
> COc1ccc(/C=C2\SC(=O)N(CCNC(=O)Cn3cnnn3)C2=O)cc1
 : -3.5, -3.9, -1, 12, 0.72, i, 5, 10, -5.1, -4
> O=C(CSc1nc(C2CC2)nc2ccccc12)Nc1ccc2c(c1)OCCO2
 : 1.4, ·, 18, 2.9, 0.72, ·, 2, -5, -3.2, -18
> Cc1ccc(C)c(NC(=O)CN(C)C(=O)c2ccc3[nH]c4c(c3c2)CC(C)CC4)c1 (stereo not given)
 : -0.3, 16, 4, 1.2, 0.62, i, 2, 6, 3.1, 0
> O=C(O)c1cccc(-c2nnn(Cc3ccccc3Cl)n2)c1
 : -0.5, ·, -1, 2.0, 0.76, ·, ·, ·, ·, 0
> Cc1c(Cl)cccc1NC(=O)CNC(=O)C1CC(=O)N(C2CCCC2)C1 (stereo not given)
 : -0.3, 4.1, ·, 3.1, 0.66, i, 2, 1, -1.8, -8
> C=CCSc1cc(C)nc2c(-c3ccccc3)cnn12
 : -0.9, 1.4, 7, -2.3, 0.63, i, ·, ·, ·, 9
> CCn1ncc(C2=NOC(C(=O)NCc3ccccc3)C2)c1C (stereo not given)
 : 0.3, ·, -71, 3.7, 0.7, ·, ·, ·, ·, 6
> COc1ccc(OC)c(C2C(C#N)=C(N)Oc3c2c(C)nn3-c2ccc(C)cc2)c1 (stereo not given)
 : 0.5, ·, 2, 2.0, 0.75, ·, ·, ·, ·, -5
> CCCCc1ccc(NC(=S)N2CCN(C)CC2)cc1
 : 0.1, -3.5, -13, 4.6, 0.68, i, -6, 2, -0.5, -10
> Cc1cccc(C(=O)OC(C)CN2C(C)CCCC2C)c1 (stereo not given)
 : 0.8, 5.3, 22, 2.4, 0.66, i, 9, 11, 0.1, -6
> O=C(CCSc1nnc(-c2ccco2)o1)Nc1ccc(F)cc1
 : 0.9, -2.5, -7, 0.7, 0.72, i, 2, 2, -3.3, ·
> Cc1cc(OCC(=O)OC(C)C(=O)Nc2ccc(N3CCOCC3)cc2)ccc1Cl (stereo not given)
 : 0.1, -1.2, ·, -1.9, 0.71, i, 5, 7, -4.3, 1
> Cc1ccn2c(=O)nc(SCC(=O)c3ccccc3)nc2c1
 : 0.2, -10, 12, 2.6, 0.66, i, 4, 0, 3.5, ·
> COc1cc(OC)cc(C(=O)c2c(C)c(C#N)c3ccccn23)c1
 : ·, -4.0, 5, 1.8, 0.7, i, -7, -21, -0.4, ·
> CCCSc1nnc(N2C(=O)CC(c3ccsc3)C3=C2CCCC3=O)s1 (stereo not given)
 : -0.5, 0.4, 13, 0.6, 0.64, i, -9, -24, -0.5, 5
> O=C(O)c1ccc(NCc2ccc3c(c2)OCO3)cc1
 : -0.3, ·, -7, 4.6, 0.75, ·, ·, ·, ·, -5
> Cc1ccc(S(=O)(=O)N2CCN(C(C(=O)Nc3ccc(F)cc3)c3ccccc3)CC2)cc1 (stereo not given)
 : 0.1, ·, 25, -0.1, 0.7, ·, ·, ·, ·, 0
> Nc1ccc2[nH]ncc2c1
 : 0.5, 45*, -22, -11, 0.67, i, -2, -8, 3.0, -7

5 entries already listed, sorted by molar mass, high to low.
Results follow in this order: A1 inh, MLL AF4-AF9 inh, T cruzi inh, UCH37 DUB inh, Ecoli growth, FGF22 binding, Ecoli rRNA inh, Ecoli rRNA inh OD600, Ecoli rRNA inh RFP, Beta apoptosis
> Cc1cc(OCC(=O)OC(C)C(=O)Nc2ccc(N3CCOCC3)cc2)ccc1Cl (stereo not given)
 : 0.1, -1.2, ·, -1.9, 0.71, i, 5, 7, -4.3, 1
> Cc1ccc(C)c(NC(=O)CN(C)C(=O)c2ccc3[nH]c4c(c3c2)CC(C)CC4)c1 (stereo not given)
 : -0.3, 16, 4, 1.2, 0.62, i, 2, 6, 3.1, 0
> CSc1nsc(SCC(=O)Nc2ccc(Cl)c(C(=O)O)c2)n1
 : 0.5, -2.2, -7, -0.1, 0.68, i, 2, 16, -0.5, ·
> O=C(c1ccccc1)N(Cc1nc2ccccc2c(=O)[nH]1)C1CCCC1
 : -1.3, -0.6, 2, 1.7, 0.69, i, -6, -8, 1.8, 0
> Cc1cccc(C(=O)OC(C)CN2C(C)CCCC2C)c1 (stereo not given)
 : 0.8, 5.3, 22, 2.4, 0.66, i, 9, 11, 0.1, -6

Further entries follow.
Results follow in this order: A1 inh, MLL AF4-AF9 inh, T cruzi inh, UCH37 DUB inh, Ecoli growth, FGF22 binding, Ecoli rRNA inh, Ecoli rRNA inh OD600, Ecoli rRNA inh RFP, Beta apoptosis
> Cc1ccccc1OCC(=O)NC(=S)Nc1ccc2c3c(cccc13)CC2
 : 1.3, ·, -3, 2.9, 0.78, ·, ·, ·, ·, -12
> COc1ccc(NC(=O)CCCc2nc3ccccc3c(=O)[nH]2)cc1Cl
 : 0.6, 4.9, ·, 2.6, 0.68, i, 9, 6, -3.2, -8
> O=c1c(-c2ccc3c(c2)OCCO3)coc2c(CN3CCOCC3)c(O)ccc12
 : 1.5, ·, -9, -23, 0.68, ·, ·, ·, ·, -3
> CC(C)(C)SC(C(=O)N1CCOCC1)c1ccc(Br)cc1 (stereo not given)
 : 0.7, 1.2, 1, 2.3, 0.7, i, 4, 1, 0.3, -8
> O=C(CCNC(=O)c1ccc(Cl)cc1)Nc1ccccc1Cl
 : 0.1, 5.5, 6, 2.2, 0.68, i, 12, 14, 2.6, -4
> CN(C)CCCNS(=O)(=O)c1ccc(Cl)s1
 : -1.3, -1.0, 11, -0.5, 0.7, i, 30, 21, -0.6, -4
> CCCCC(=O)c1c(O)c2ccccc2oc1=O
 : -3.2, ·, -4, 2.9, 0.66, ·, ·, ·, ·, -2
> COc1ccc(/C=C/C(=O)c2ccccn2)cc1
 : -7.5, 3.8, -9, 3.2, 0.64, i, 14, 3, 12, -5
> O=C(Nc1ccc(S(=O)(=O)Nc2ncccn2)cc1)C1CC(=O)N(c2ccccc2)C1 (stereo not given)
 : ·, -4.5, ·, 3.4, 0.71, i, 6, 11, 1.6, ·
> CNc1oc(-c2ccccc2)nc1S(=O)(=O)c1ccc(C)cc1
 : 0.2, 2.1, -25, -0.4, 0.73, i, 4, 3, -0.5, -2
> CCN(CC)CCNC(=O)c1cc(Br)c(N)cc1OC
 : 0.6, -4.1, ·, 2.0, 0.72, i, ·, ·, ·, 4
> CC(NC(=O)CSc1nnc(-c2cccc(S(=O)(=O)N3CCCCC3)c2)o1)C12CC3CC(CC(C3)C1)C2 (stereo not given)
 : -0.2, ·, 28, -1.3, ·, ·, ·, ·, ·, 22
> CCOc1ccc(S(=O)(=O)N(C)CC(=O)NCCN2CCOCC2)cc1
 : 0.4, -4.8, -6, 1.9, 0.73, i, 2, 6, -0.7, 5
> Cc1ccc(-n2c(C)cc(C(=O)CSc3nnnn3C)c2C)cc1
 : -5.6, ·, 20, 6.4, 0.68, ·, ·, ·, ·, -3
> O=S(=O)(c1cccs1)N1CCN(c2ncccn2)CC1
 : 0.5, ·, 5, 2.6, 0.7, ·, ·, ·, ·, -2

Marked active in MLL AF4-AF9 inh (from the list above):
SMILES | MLL AF4-AF9 inh | UCH37 DUB inh | Ecoli growth | FGF22 binding | Ecoli rRNA inh | Ecoli rRNA inh OD600 | Ecoli rRNA inh RFP
Nc1ccc2[nH]ncc2c1 | 45* | -11 | 0.67 | i | -2 | -8 | 3.0

Additional results follow.
Results follow in this order: A1 inh, MLL AF4-AF9 inh, T cruzi inh, UCH37 DUB inh, Ecoli growth, FGF22 binding, Ecoli rRNA inh, Ecoli rRNA inh OD600, Ecoli rRNA inh RFP, Beta apoptosis
> CCC(c1nnnn1C(C)(C)CC)N(CCN1CCOCC1)Cc1cc2cc(C)ccc2[nH]c1=O (stereo not given)
 : -0.5, ·, 9, -4.3, 0.67, ·, ·, ·, ·, 0
> CCCc1[nH]c2ccc(C(=O)OC)cc2c1CCC
 : 1.0, -16, 19, 3.0, 0.78, i, -9, -5, -4.6, -2
> Cc1ccc(C(=O)O)cc1-n1c(C)cc(C=O)c1C
 : -0.9, 0.2, -1, 3.1, 0.69, i, 18, 7, -4.5, -3
> NS(=O)(=O)c1cc(C(=O)OCC(=O)Nc2ccccc2[N+](=O)[O-])ccc1Cl
 : -0.1, -0.5, -13, ·, ·, i, -20*, -9.1*, 1.0*, -5
> CS(=O)(=O)N(CC(=O)NCc1ccccn1)c1ccc2c(c1)OCCO2
 : 0.2, ·, -12, 5.0, 0.67, ·, ·, ·, ·, 3
> CC(C(=O)NCCc1ccc(Cl)cc1)n1c(=O)c2cccn2c2cccnc21 (stereo not given)
 : 0.2, 0.0, 7, -1.8, 0.7, i, 2, -14, 4.3, 1
> O=C(COC(=O)c1ccc(Br)o1)Nc1cccc(S(=O)(=O)N2CCCCC2)c1
 : 2.6, 3.1, ·, -1.6, 0.7, i, -1, -4, 2.2, -9
